Calb biofilm kill: mixture kills Candida albicans biofilm cells. C. albicans biofilm persisters + clotrimazole, fluorescence viability; primary screen in compound mixtures of four per well. inhibition, % at 7.6 µM. 120,000 compounds, 0.02% hits. AID 1242;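 active = inhibition above 30.3% in the primary screen of four-compound pools, then above 30% when the compound was retested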;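 note: compounds exposed to preformed 24 h biofilms for 48 h; the number belongs to the whole pool; some results filed as inactive read as strong as hits; inactives centre near 12; 0% = biofilm with clotrimazole alone and 100% = kill control; retested singly at about 60 µM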
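Test system: C. albicans biofilms. Buffer or medium: RPMI/MOPS medium, pH 7.0. Timing: 48 h compound exposure at 37 °C. Technique: Alamar Blue fluorescence. Evaluation: percent inhibition of biofilm viability.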
* hit, by the source's call. An excerpt; the hit share may differ from the screen's.

SMILES | Calb biofilm kill
CCC(C)NCCCCOc1cc(C)cc(C(C)C)c1 (stereo not drawn) | 11
CCOC(=O)C(=O)CC(=O)c1ccc2c(c1)OCCO2 | 11
Cc1nc2ccc(NC(=O)N3CCOCC3)cc2nc1C | 17
Cc1cc(C=O)c(C)n1-c1ccc(N2CCOCC2)cc1 | 9
CCOc1ccccc1NC(=O)CCS(=O)(=O)c1ccc(OC)cc1 | 12
O=C(CSc1nccn1-c1cccc(Cl)c1)NO | 18
O=C(O)COc1ccccc1/C=N/NC(=O)CSc1nnc(SCc2ccccc2)s1 | 26
NC(=O)c1c[nH]c2ccccc12 | 16
C/C=C/C(=O)OCC(=O)Nc1ccc(OC)c(Cl)c1 | 5
CCCc1nc2cc(Cl)c([N+](=O)[O-])cc2o1 | 18
Cc1cc(C)n2nc(SCC(=O)c3c(N)n(CC(C)C)c(=O)n(C)c3=O)nc2n1 | 0
CC(NC(=O)COC(=O)c1ccc2c(c1)OCO2)c1ccccc1 (stereo not drawn) | 13
CCSc1nnc(CNc2ccc(C)cc2)n1C | 16
CN(Cc1ccccc1NC(=O)c1ccc(S(=O)(=O)N(C)C)cc1)C1CCCCC1 | 17
CN(C)S(=O)(=O)c1cccc(NC(=S)N2CCc3ccccc32)c1 | 17
CCN1CCN(C(=S)NCC(C)C)CC1 | 11
Cc1ccc2ccc(C)[n+](CCCS(=O)(=O)[O-])c2c1 | 5
CC(C)Cc1nc2ccccc2[nH]1 | 12
COc1ccccc1NNC(=O)c1cccnc1Oc1ccccc1 | 17
COC(=O)c1ccc(NS(=O)(=O)c2ccc(Cl)cc2)o1 | 4

Sorted by SMILES length (smallest number first): five of the compounds above.
SMILES | Calb biofilm kill
NC(=O)c1c[nH]c2ccccc12 | 16
CCSc1nnc(CNc2ccc(C)cc2)n1C | 16
CC(NC(=O)COC(=O)c1ccc2c(c1)OCO2)c1ccccc1 (stereo not drawn) | 13
CN(C)S(=O)(=O)c1cccc(NC(=S)N2CCc3ccccc32)c1 | 17
CN(Cc1ccccc1NC(=O)c1ccc(S(=O)(=O)N(C)C)cc1)C1CCCCC1 | 17

Next section
SMILES | Calb biofilm kill
COCCCNC(=O)c1ccc(Cn2c(=O)c3ccccc3n(CC(=O)NCc3ccco3)c2=O)cc1 | 4
CC(=O)NC(NC(C)=O)c1cccc(OCc2ccccc2)c1 | 21
O=C(OCC#CCSc1nc2ccccc2o1)c1cc2ccccc2o1 | 20
O=C(COC(=O)Cc1ccc(Br)cc1)NC1CCCCC1 | 11
CN1CCN(c2ccc(-c3ccnn3C(=O)Nc3ccccc3)cc2)CC1 | 0
COc1ccc(NC(=S)N(CCN(C)C)C(C)c2ccco2)cc1Cl (stereo not drawn) | 12
COc1cccc(C(C)NC(=O)Nc2cc(Cl)ccc2OC)c1 (stereo not drawn) | 16
O=c1[nH]c(CN2CCN(c3ccccn3)CC2)nc2c(Br)cc(Br)cc12 | 11
CN(C(=O)COC(=O)c1ccccc1C(=O)N1CCN(c2ccccc2)CC1)c1ccccc1 | 5
Cc1ccccc1-n1cc(-c2ccc(Br)cc2)nc1SCC(N)=O | 1
Cc1ccc(-c2cc(C(=O)NCC3CCCO3)c3ccccc3n2)cc1C (stereo not drawn) | 2
CC(C)(CN1CCN(Cc2ccccc2)CC1)NS(=O)(=O)c1ccccc1 | 19
COc1ccc(/C=N/NC(=O)CSc2ccccn2)cc1OC | 24
CCN(CC)S(=O)(=O)c1cccc(C(=O)N/N=C2\CC(=O)CC(C)(C)C2)c1 | 14
CN(C1CC(C)(C)N(O)C(C)(C)C1)S(=O)(=O)CC12CCC(CC1=O)C2(C)C (stereo not drawn) | 7
CC(C)(C)c1ccc(/C=C2\Oc3c(ccc(O)c3CN3CCN(CCO)CC3)C2=O)cc1 | 13
CCOc1cccc(CNCCO)c1OCc1ccc(Cl)cc1Cl | 19
CSc1nc2c(c(=O)[nH]1)C(c1ccc(Br)cc1)CC(=O)N2 (stereo not drawn) | 0
COc1ccc(CN2CCC(c3nc4ccc(Cl)cc4[nH]3)CC2)cc1 | -9
Cc1cccc2sc(N(CCCN(C)C)C(=O)c3sc4ccccc4c3Cl)nc12 | 12
C=C(C)CNC(=S)NNC(=O)CCn1c2cc(Cl)ccc2c2ccc(Cl)cc21 | 15
CC(C(=O)Nc1ccc2c(c1)OCCO2)c1ccc([N+](=O)[O-])cc1 (stereo not drawn) | 24
COc1ccc(Cc2nnc(N/N=C/c3ccc(C)o3)[nH]c2=O)cc1 | 19
O=C(O)CCCCCNCc1c(Cl)cccc1Cl | 10
CNC(=O)/C(C#N)=C/c1cccc(Oc2ccccc2)c1 | 14
COc1cccc(OC)c1Nc1nc(C)nc2c1nnn2Cc1ccccc1Cl | 8
CCOc1ccc(N2C(=O)C(=O)/C(=C(/O)c3ccccc3)C2c2ccccc2[N+](=O)[O-])cc1 (stereo not drawn) | 15
Cc1cc(C)nc(NC(=O)c2cccc([N+](=O)[O-])c2)c1 | 14
COC(=O)c1c(-c2ccccc2)noc1C | -3
CCCNS(=O)(=O)c1ccc2c(c1)n(C)c(=O)n2C | 5
O=C(COC(=O)c1ccccc1OCC(=O)Nc1ccc(Br)cc1)Nc1ccccc1 | 8
S=C(NCc1ccco1)N1CCN(C/C=C/c2ccccc2)CC1 | 19
O=[N+]([O-])c1ccccc1SNc1ccc(Br)cn1 | 26
CCCN(CCC)c1ccc(CC(=O)NC(C)Cc2ccccc2)cc1 (stereo not drawn) | 27
NNC(=S)Nc1c(F)cc(F)cc1Br | 11
O=C(OCc1ccccc1)N1CCCC1/C=C/CN1CCOCC1 (stereo not drawn) | -5
COc1c2ccoc2c(OCC=C(C)C)c2oc(=O)ccc12 | 8
CSc1cccc(NS(=O)(=O)c2ccc(C(C)=O)cc2)c1 | 6
CC(C)N(NC(=O)c1cccc2ccccc12)C(C)C | 10
COC(=O)Cc1csc(Nc2ccccc2)n1 | 7
Cc1[nH]c2ccccc2c1/C=N/NC(=O)CNC(=O)COc1ccccc1 | 14
NC(=O)c1ccc(NC(=O)COC(=O)/C=C/c2cn(-c3ccccc3)nc2-c2cccnc2)cc1 | 13
CCCCCCCCCCCCCCCC(=O)OC[C@H](COP(=O)([O-])OCC[N+](C)(C)C)OC(=O)CCCCCCCCCCCCCCC | 1
Cc1ccc(C(=O)N/C(=C\c2cccs2)C(=O)NCCc2c[nH]c3ccccc23)cc1 | 2
COc1ccc(-c2nnc(SCC(C)C)o2)cc1 | 3
CCN(CC)S(=O)(=O)c1cc(OC)c(Cl)cc1OC | 12
CCCCOC(=O)c1ccc(NC(=O)c2c(OC)cccc2OC)cc1 | 26
CCCCNC(=O)CSc1nc2ccccc2n1S(=O)(=O)c1ccc(Br)cc1 | 4
CC(=O)Nc1ccc(NC(=O)CSc2ccc3nnc(CCNC(=O)c4ccccc4)n3n2)cc1 | 11
Cc1cccc(S(=O)(=O)NCCc2ccccc2)c1 | 10
COc1cccc(C(=O)Nc2ccc(S(=O)(=O)Nc3cc(C)nc(C)n3)cc2)c1 | 10
CN(C)c1ccc(/C=C/c2cccc[n+]2[O-])cc1 | 14
Cc1c(C(=O)N/N=C/c2ccncc2)no[n+]1[O-] | 3
Cc1cc(C(=O)CSc2nc(N)cc(N)n2)c(C)n1C1CC1 | -1
CCc1ccc(NC(=O)C(=S)NC2CCCCC2)cc1 | 11
CC(C)(C)NC(=O)C(c1ccc(F)cc1)N(Cc1ccccc1Cl)C(=O)c1ccn[nH]1 (stereo not drawn) | 14
CN(C(=O)COC(=O)c1cc(-c2ccco2)nc2ccccc12)C1CCS(=O)(=O)C1 (stereo not drawn) | 20
CCCN=C1CC(C)(C)CC(=O)/C1=C(/O)CCC | 22
COc1ccc(OC)c(/C=N/NC(=O)c2ccc(N(C)S(=O)(=O)c3ccccc3)cc2)c1 | 15
O=C(CSc1nccc(-c2cccs2)n1)Nc1cccc(Cl)c1 | 7

Carrying on:
SMILES | Calb biofilm kill
C=C(C)Cc1c(C)c(C#N)c2nc3ccccc3n2c1NCCCN(C)C | 7
O=C(Nc1ccc(C(=O)N2CCOCC2)cc1)c1cc(-c2cccnc2)nc2ccc(Br)cc12 | 11
O=C(NCC(=O)N(Cc1ccccc1)C(C(=O)NC1CCCC1)c1cccnc1)c1ccco1 (stereo not drawn) | 15
CC(=O)Nc1cccc(NC(C)=C(C#N)C#N)c1 | -15
Cc1cc(/C=C(\C#N)C(=O)O)c(C)n1CCC(C)C | 19
O=C(COC(=O)c1ccc2ccccc2n1)NCc1ccccc1 | -2
Cc1ccn2c(=O)cc(C)nc2c1 | 17
CCCn1nnnc1NCc1c(F)cccc1Cl | 16
Cc1cccc(N=Nc2c(C)c(C#N)c(O)[nH]c2=O)c1 | 12
Cc1ccc(CCNC(=O)C2CC(c3ccc(C(F)(F)F)cc3)=NO2)cc1 (stereo not drawn) | 17
N/C(=N\OC(=O)c1ccc(Br)cc1)c1ccncc1 | 8
CCCCc1n[nH]c2c1/C(=N/O)CC(C)(C)C2 | 18
O=C(N/N=C1\C2CN3CCN(C2)CC1(c1ccccc1)C3)Nc1ccccc1 | 12
CCOC(=O)c1ccccc1OCc1cc(/C=N/NC(=O)c2cccnc2)ccc1OC | 3
CCCN=C1NC(=O)C(CC(=O)NCCc2ccccc2)S1 (stereo not drawn) | 9
CC1CCCN(C(=O)c2cc(N3C(=O)C4C5CCC(C5)C4C3=O)ccc2Cl)C1 (stereo not drawn) | 8
Cc1cccc(C)c1NC(=O)Nc1ccc(S(N)(=O)=O)cc1 | 13
COc1cccc(/C=N/NC(=O)CN2C(=O)NC3NC(=O)NC32)c1 (stereo not drawn) | 12
O=C(Nc1ccccc1Cl)Oc1ccc(Cl)cc1Cl | -2
CC(=O)NC(Cc1c[nH]c2ccccc12)C(=O)N/N=C/c1ccccc1 (stereo not drawn) | 5

Of the compounds above, these have a cyano group.
SMILES | Calb biofilm kill
CNC(=O)/C(C#N)=C/c1cccc(Oc2ccccc2)c1 | 14
C=C(C)Cc1c(C)c(C#N)c2nc3ccccc3n2c1NCCCN(C)C | 7
CC(=O)Nc1cccc(NC(C)=C(C#N)C#N)c1 | -15
Cc1cc(/C=C(\C#N)C(=O)O)c(C)n1CCC(C)C | 19
Cc1cccc(N=Nc2c(C)c(C#N)c(O)[nH]c2=O)c1 | 12

Later entries
SMILES | Calb biofilm kill
COC(=O)c1cc(C(=O)N(Cc2ccccc2)c2ccccn2)cc([N+](=O)[O-])c1 | 12
Cc1nc(-c2ccc(Cl)cc2)sc1C(=O)NN | -6
CCOC(=O)C1(CCCc2ccccc2)CCN(C(=O)C2CCCO2)CC1 (stereo not drawn) | 27
O=C(NCc1ccco1)C1CCCN1S(=O)(=O)c1ccccc1C(F)(F)F (stereo not drawn) | 17
Cc1nn(C)c(=O)n1-c1ccccc1 | 4
CCc1ccc(C(=O)CN2CCSC2=N)cc1 | 15
O=C1c2ccccc2-c2ccc(C(=O)N3CCCCC3)cc21 | 16
O=C(CCn1c(=O)oc2ccccc21)NCCC1=CCCCC1 | 20
COC(=O)N/N=C/c1sc(N2CCCCC2)nc1-c1cccs1 | 4
O=C(CCNc1ccc(Cc2ccncc2)cc1)c1ccc([N+](=O)[O-])cc1 | 8
NC(=O)Nn1c(CCC(=O)O)ccc1-c1ccc(Cl)cc1 | 18
Cn1cccc1/C=N/NC(=O)c1ccc[n+]([O-])c1 | 4
COC(=O)CSc1nc2cc3c(cc2cc1C)OCO3 | -15
CCOC(=O)C1=C(N)Oc2cc(O)ccc2C1c1ccc([N+](=O)[O-])cc1 (stereo not drawn) | 0
Nc1nc(NCCCN2CCOCC2)nc(Nc2cccc(Cl)c2)c1[N+](=O)[O-] | 3
CCCc1cc(=O)[nH]c(N/N=C/C=C\c2ccccc2)n1 | 6
CNC(=O)COC(=O)/C=C/c1cn(-c2ccccc2)nc1-c1ccc(C)o1 | 21
COc1cccc(C(=O)Nc2ccc(Oc3cccc(C(F)(F)F)c3)nc2)c1 | 8
O=C(NCC1CCCO1)/C(=C/c1cn(-c2ccccc2)nc1-c1cccnc1)NC(=O)c1ccccc1 (stereo not drawn) | 26
CCCc1ccccc1OCCNC(=O)c1cc(=O)n(C)c(=O)n1C | 46
OCCNC(=S)Nc1ccc(Oc2ccccc2)cc1 | -18
O=C(CN1C(=O)NC2(CCSC2)C1=O)NCc1ccccc1 (stereo not drawn) | -7
Cc1ccc(S(=O)(=O)NCCC(C)C)cc1[N+](=O)[O-] | 12
CC(C)NC(=S)NC(=O)/C=C/c1cccc2ccccc12 | 12
COc1ccc(OC)c(S(=O)(=O)Nc2ccc3c(c2)C(=O)OC3)c1 | 23
CCOC(=O)CN1NC2(CCCCCC2)NC1=S | 22
N#C/C(=C\c1ccc2c(c1)OCCO2)C(=O)NC1CCCCC1 | 7
C/C(=N\NC(=O)c1ccccc1-n1cccc1)C1CC1 | 7
CNC(=S)N(Cc1cccs1)Cc1cc2cc(OC)ccc2[nH]c1=O | -4
COc1ccc(C(=O)NCC(=O)OCC(=O)N2N=C(c3ccc(Cl)cc3)CC2c2ccco2)cc1OC (stereo not drawn) | 12
CCN(c1cccc(C)c1)S(=O)(=O)c1ccc(OC)c([N+](=O)[O-])c1 | 12
COc1ccc(/C=C2/N=C(SC3CCOC3=O)N(c3cccc(OC)c3)C2=O)cc1 (stereo not drawn) | 17
CCOC(=O)c1c(CC(C)C)csc1/N=C/C1C(=O)CC(C)(C)CC1=O | 7
O=C(CC1S/C(=N/N=C/C=C/c2ccccc2)NC1=O)Nc1ccc(Cl)c(Cl)c1 (stereo not drawn) | 14
Cc1nc(SCC(=O)O)c(C#N)c(-c2ccco2)c1C(=O)N(C)C | 13
O=C(NCCc1ccc(F)cc1)c1ccc([N+](=O)[O-])cc1 | 15
CCOc1cc(/C=C2/C(=O)ON=C2C)ccc1OCc1ccccc1 | 6
COc1cc(NC(=O)CSc2nc3c(C)ccc(C)c3cc2C)c(C(=O)O)cc1OC | 13
CC(=O)c1sc(-c2ccc(F)cc2F)nc1C | 10
Cc1ccc(CSCC(=O)NCc2cccs2)cc1 | 20
Cc1ccc(NCc2nnc(SCC#N)o2)c(C)c1 | 8
O=C1CCC/C1=C/Nc1ccc(Cl)cc1 | 18

Source: PubChem BioAssay
